Cruzain noTriton: qHTS Assay for Promiscuous and Specific Inhibitors of Cruzain (without detergent); AID 1476, 2009; Potency, µM, without a hit: max response, negative = inhibition, actives largely listed as inhibitors; Cruzipain (Trypanosoma cruzi), P25779; 200,000 tested, 2.3% active; purified cruzain, Z-FR-AMC fluorescence, no detergent;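 also: plate controls were enzyme without inhibitor for no effect and buffer without enzyme for full effect; nearly all actives have a fitted effect of over 40% in size; top concentration of the series not given in the record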
Target sequence (P25779 123-467 limits assumed): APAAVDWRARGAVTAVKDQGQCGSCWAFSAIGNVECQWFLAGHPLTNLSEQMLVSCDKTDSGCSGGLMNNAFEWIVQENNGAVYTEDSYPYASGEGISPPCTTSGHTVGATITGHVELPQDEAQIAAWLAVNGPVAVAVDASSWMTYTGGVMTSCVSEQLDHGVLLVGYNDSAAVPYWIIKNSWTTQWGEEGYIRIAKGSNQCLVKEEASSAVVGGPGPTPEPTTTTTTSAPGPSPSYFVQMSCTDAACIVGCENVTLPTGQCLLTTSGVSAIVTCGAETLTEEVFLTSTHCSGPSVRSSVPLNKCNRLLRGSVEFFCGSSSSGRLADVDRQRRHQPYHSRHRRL
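Detergent-free condition (0.00005% Triton X-100) in acetate buffer pH 5.5 with DTT. 1.5 nM enzyme and compound were pre-mixed 15 min, then 2 uM Z-FR-AMC substrate added; reaction progress from fluorescence change between first and third reads (60 s).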
Marburg entry inh: qHTS for inhibitors of binding or entry into cells for Marburg Virus; Marburg virus pseudotyped entry inhibition, cell reporter; control for the full effect not named in the record; about a third of the inactives were read at about 46 µM; Potency, µM (titrated, usually from 37.8 µM), inactives show at the highest dose activity change, negative = inhibition, most hits filed as inhibitors; 300,000 tested, 1.8% active; AID 540276, 2011; active = well fitted inhibition curve with a large enough effect; inconclusive = small, poorly fitted or top-dose-only effect, or effect the other way; inactive = flat fitted curve, though single readings scatter; tested in HEK293 cells; about a fifth of its hits are not listed in these tables; also: % is scaled to controls: 0 for no effect and ±100 for the full control effect; luciferase read-out
SARS PLpro yeast: qHTS of Yeast-based Assay for SARS-CoV PLP | AID 485353, 2010 | S. cerevisiae expressing SARS-CoV PLpro, growth rescue; control for the full effect not named in the record | 330,000 tested, 0.19% active | Potency, µM (titrated, usually from 32.9 µM), for inactives: at the top dose activity, positive = growth rescue; active means well fitted rising curve with a large enough effect; inconclusive means small, poorly fitted or top-dose-only effect; inactive means no such curve, though single readings can be large or run the other way; also: 0% is about no effect; nearly all actives have a fitted effect of over 55% in size; growth read by luminescence after 48 h
RE007 growth inh: qHTS Assay for Inhibitors of the HIV-1 protein Vpr | Potency, µM (doses to about 92.2 µM), without a hit: at the top dose activity change, negative = less growth | 360,000 tested, 0.21% active | S. pombe RE007 Vpr strain, BacTiter-Glo ATP luminescence, 24 h; control for the full effect not named in the record; active = well fitted falling curve with a large enough effect; inconclusive = small, poorly fitted or top-dose-only effect; inactive = no such curve, though single readings can be large or run the other way;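 also: % is scaled to controls: 0 for no effect and ±100 for the full control effect; nearly all actives have a fitted effect of over 50% in size; the assay follows cell death caused by Vpr and the record does not say whether a fall means rescue or toxicity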
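Fission yeast strain RE007, carrying one chromosomally integrated HIV-1 vpr copy, was seeded at OD 0.01 in PMG+AL medium with 23 nL pinned compound. After 24 h at 30 °C and 99% humidity, viability was read by BacTiter-Glo luminescence.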
Cruzain inh Det: qHTS Assay for Promiscuous and Specific Inhibitors of Cruzain (with detergent); Cruzipain (Trypanosoma cruzi), P25779; purified cruzain, Z-FR-AMC fluorescence, 0.01% Triton; Potency, µM, without a hit: max response, negative = inhibition, hits mostly inhibitors; 200,000 tested, 0.43% active;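 also: plate controls were neutral wells for no effect and buffer without enzyme for full effect; nearly all actives have a fitted effect of over 40% in size; top concentration of the series not given in the record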
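In this qHTS format, compounds are incubated with 1.5 nM cruzain for 15 min at room temperature before 2 uM Z-FR-AMC is added. Release of AMC is followed at 360/450 nm, and progress is taken as the 60 s fluorescence difference.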
LASV entry inh: qHTS for Inhibitors of binding or entry into cells for Lassa Virus; 300,000 tested, 1.2% active; Lassa virus pseudotype entry inhibition, cell reporter; control for the full effect not named in the record; Potency, µM (doses to about 37.9 µM), inactives show at the top dose activity change, negative = inhibition, usual class: inhibitors; active means well fitted inhibition curve with a large enough effect; inconclusive means small, poorly fitted or top-dose-only effect, or effect the other way; inactive means flat fitted curve, though single readings scatter; tested in HEK293 cells; also: % is scaled to controls: 0 for no effect and ±100 for the full control effect; nearly all actives have a fitted effect of over 50% in size; luciferase read-out
NS1 inh: qHTS Assay for Inhibitors of Influenza NS1 Protein Function | S. cerevisiae slowed by influenza A NS1, growth recovery by OD600 | 270,000 tested, 0.4% active | Potency, µM (series often up to 46.1 µM), without a hit: at the top dose activity, positive = more growth; active means well fitted rising curve with a large enough effect; inconclusive means small, poorly fitted or top-dose-only effect; inactive means no such curve, though single readings can be large or run the other way; also: nearly all actives have a fitted effect of over 50% in size
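OD600 was taken as the measure of yeast growth restored by compound in an NS1-expressing S. cerevisiae strain. Cells had been washed out of glucose medium and diluted 1:100 into galactose -URA medium, pH 6.0.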
StopGo reporter: High Throughput Screening for Foot and Mouth Disease Virus Antivirals; 410,000 tested, 1.2% active; human cells with a luciferase reporter of 2A StopGo recoding; control for the full effect not named in the record; Potency, µM (series often up to 57.9 µM), inactives show top-dose signal change, negative = less light; active = well fitted falling curve with a large enough effect; inconclusive = small, poorly fitted or top-dose-only effect; inactive = no such curve, though single readings can be large or run the other way; tested in HEK293T cells; also: % is scaled to controls: 0 for no effect and ±100 for the full control effect; nearly all actives have a fitted effect of over 45% in size; luciferase light after 4 h
* hit, by the source's call; & = joins results of further samples; ! = not confirmed by another sample; [ ] = another dose, or the depositor's remark. Unless noted, calls follow the shape of the dose curve; as a rule, active = well fitted curve in the direction sought with a large enough effect; inconclusive = small, poorly fitted or top-dose-only effect, or another doubt; inactive = no such curve, though single readings can be large; an effect the other way counts as inactive or inconclusive. Potency is read from the fitted curve at half-maximal effect.

CCCCC1(C2CCCC2)NC(=O)NC1=O (stereo not given) was read as Marburg entry inh 7%[46.1 µM], RE007 growth inh 2%, LASV entry inh inconclusive and StopGo reporter -5%.
`O=C(Oc1ccc2c(-c3ccccc3)cc(=O)oc2c1)C1CCCCC1` gave Cruzain noTriton -13%, Marburg entry inh -20%[46.1 µM], SARS PLpro yeast -6%, RE007 growth inh 14%, Cruzain inh Det -2.2%, LASV entry inh -49%, NS1 inh 3% and StopGo reporter -8%.
For COc1ccc(S(=O)(=O)NNC(=O)Nc2ccc(F)cc2F)c(OC)c1 the results were Marburg entry inh -1%, SARS PLpro yeast -10%, RE007 growth inh -9%, LASV entry inh 11%, NS1 inh 0% and StopGo reporter 24%.
Screening O=C(CN1C(=O)c2ccccc2S1(=O)=O)Nc1ccc(S(=O)(=O)N2CCCCCC2)cc1 returned Cruzain noTriton -19%, Marburg entry inh 6%&6%, SARS PLpro yeast 3%, RE007 growth inh 23%, Cruzain inh Det -6.0%, LASV entry inh 8%, NS1 inh inconclusive and StopGo reporter 0%.
Screening Cc1ccccc1NS(=O)(=O)c1cccc(-c2nnc(-c3ccccc3)o2)c1 returned Cruzain noTriton 19%, Marburg entry inh -1%, SARS PLpro yeast -3%, RE007 growth inh -1%[3.69 µM], Cruzain inh Det -2.9%, LASV entry inh 10%, NS1 inh 6% and StopGo reporter 12%.
Screening CCN(CC)S(=O)(=O)c1ccc(NC(=O)CN(c2ccc(OC)cc2OC)S(C)(=O)=O)cc1 returned Cruzain noTriton inconclusive, Marburg entry inh inconclusive, SARS PLpro yeast -5%, RE007 growth inh 24%, Cruzain inh Det 4.3%, LASV entry inh -19%, NS1 inh -39% and StopGo reporter -3%.
`Cc1cccc(N(Cc2cc3cc(C)ccc3[nH]c2=O)C(=O)c2cccs2)c1` gave SARS PLpro yeast 0%, RE007 growth inh 2%, NS1 inh 2% and StopGo reporter -23%.
CN(C)CCCN(C(=O)c1ccc2c(c1)OCCO2)c1nc2ccccc2s1 was read as Cruzain noTriton -14%, Cruzain inh Det -3.7%, LASV entry inh inconclusive and StopGo reporter 18%.
Cc1ccc(F)cc1NC(=O)CCSc1nc(-c2ccco2)cc(C(F)(F)F)n1 was read as Cruzain noTriton 15%, Marburg entry inh 1%[46.1 µM], Cruzain inh Det -4.7%, LASV entry inh -3%[46.1 µM] and StopGo reporter -8%.
`Cc1ccccc1OCCC(=O)OCC(=O)NC1CCS(=O)(=O)C1` (stereo not given) gave Marburg entry inh -2%, SARS PLpro yeast -2%, RE007 growth inh -1%, LASV entry inh 6% and StopGo reporter -20%.
Screening CCCCCn1c(CCCNC(=O)c2cccc(C)c2)nc2ccccc21 returned Cruzain noTriton inconclusive, Marburg entry inh -18%[46.1 µM], Cruzain inh Det -11%, LASV entry inh inconclusive and StopGo reporter inconclusive.
Screening CCn1c2c(c(=O)n3ncc(C(=O)Nc4cc(Cl)ccc4OC)c13)CN(Cc1ccc(OC)cc1)CC2 returned Cruzain noTriton inconclusive, Cruzain inh Det -8.4%, LASV entry inh -9%[46.1 µM] and StopGo reporter 2%.
Screening COc1ccccc1N1CCN(C(CNS(=O)(=O)c2cc(F)ccc2F)c2cccnc2)CC1 (stereo not given) returned Cruzain noTriton 11%, Marburg entry inh -8%&-8%, SARS PLpro yeast 2%, RE007 growth inh -6%, Cruzain inh Det -0.5%, LASV entry inh -1%, NS1 inh 7%&-8% and StopGo reporter -17%.
For CCC(C)N1CC(C(=O)O)CC1=O (stereo not given) the results were Cruzain noTriton -3%, Marburg entry inh 7%, SARS PLpro yeast 3%, RE007 growth inh 7%, Cruzain inh Det 8.5%, LASV entry inh 2% and NS1 inh 3%.
Screening Cn1c(=O)n(C)c2cc(N3CCCCC3)c(NC(=O)c3ccc(C(C)(C)C)cc3)cc21 returned Cruzain noTriton -1%, Marburg entry inh 3%[46.1 µM], Cruzain inh Det -1.0%, LASV entry inh 24%[46.1 µM] and StopGo reporter inconclusive.
For O=C(NNC1CC(=O)N(c2ccc(Cl)cc2)C1=O)c1ccco1 (stereo not given) the results were Marburg entry inh -13%, SARS PLpro yeast -7%, RE007 growth inh 10%, LASV entry inh 12% and StopGo reporter -9%.
`CCCCN(C)Cc1c(C)[nH]c2ccc(OCC)cc2c1=O` gave Cruzain noTriton -3%, SARS PLpro yeast inconclusive, RE007 growth inh -5%, Cruzain inh Det -4.3%, NS1 inh -15% and StopGo reporter -12%.
`C=CCSc1nnc2c(n1)OC(c1ccco1)Nc1ccccc1-2` (stereo not given) gave Cruzain noTriton -15%, Marburg entry inh 4%, SARS PLpro yeast -3%, RE007 growth inh 4%, Cruzain inh Det -9.1%, LASV entry inh -2%, NS1 inh -7% and StopGo reporter 19%.
`COc1ccc(Cn2nnnc2C(c2ccc(C)cc2)N2CCN(C3CCCC3)CC2)cc1` (stereo not given) gave Cruzain noTriton 4%, Marburg entry inh inconclusive, SARS PLpro yeast -2%, RE007 growth inh -1%, Cruzain inh Det 4.7%, LASV entry inh -12%, NS1 inh -9% and StopGo reporter 0%.
Screening O=[N+]([O-])c1ccc2c(c1)C(N1CCOCC1)/C(=C/C1(O)CCCCC1)O2 (stereo not given) returned Marburg entry inh -13%[46.1 µM], SARS PLpro yeast 0%, RE007 growth inh 0%, LASV entry inh 0%[46.1 µM], NS1 inh -1% and StopGo reporter -9%.

A section of the results above, for reference:
For O=C(NNC1CC(=O)N(c2ccc(Cl)cc2)C1=O)c1ccco1 (stereo not given) the results were Marburg entry inh -13%, SARS PLpro yeast -7%, RE007 growth inh 10%, LASV entry inh 12% and StopGo reporter -9%.
`CCCCN(C)Cc1c(C)[nH]c2ccc(OCC)cc2c1=O` gave Cruzain noTriton -3%, SARS PLpro yeast inconclusive, RE007 growth inh -5%, Cruzain inh Det -4.3%, NS1 inh -15% and StopGo reporter -12%.
`C=CCSc1nnc2c(n1)OC(c1ccco1)Nc1ccccc1-2` (stereo not given) gave Cruzain noTriton -15%, Marburg entry inh 4%, SARS PLpro yeast -3%, RE007 growth inh 4%, Cruzain inh Det -9.1%, LASV entry inh -2%, NS1 inh -7% and StopGo reporter 19%.
`COc1ccc(Cn2nnnc2C(c2ccc(C)cc2)N2CCN(C3CCCC3)CC2)cc1` (stereo not given) gave Cruzain noTriton 4%, Marburg entry inh inconclusive, SARS PLpro yeast -2%, RE007 growth inh -1%, Cruzain inh Det 4.7%, LASV entry inh -12%, NS1 inh -9% and StopGo reporter 0%.
Screening O=[N+]([O-])c1ccc2c(c1)C(N1CCOCC1)/C(=C/C1(O)CCCCC1)O2 (stereo not given) returned Marburg entry inh -13%[46.1 µM], SARS PLpro yeast 0%, RE007 growth inh 0%, LASV entry inh 0%[46.1 µM], NS1 inh -1% and StopGo reporter -9%.

Next section:
Screening COC(=O)c1sc(N2C(=O)C(O)=C(C(=O)c3ccc(C)o3)C2c2cccs2)nc1C (stereo not given) returned SARS PLpro yeast 17%, RE007 growth inh -11%, NS1 inh 19% and StopGo reporter 18%.
C=CCOc1ccc(C(=O)Nc2ccc(OCC)cc2)cc1 was read as Marburg entry inh 2%[46.1 µM], SARS PLpro yeast 0%, RE007 growth inh -7%, LASV entry inh 1%[46.1 µM], NS1 inh 4% and StopGo reporter 18%.
Screening COc1ccc(C2(C)NC(=O)N(CC(=O)Nc3ccc4ccccc4c3)C2=O)cc1OC (stereo not given) returned Marburg entry inh inconclusive, SARS PLpro yeast 4%, RE007 growth inh 1%, LASV entry inh -21% and StopGo reporter inconclusive.
For O=C(O)c1cccc2c1/C(=N/Nc1ccc([N+](=O)[O-])cc1[N+](=O)[O-])c1ccccc1-2 the results were SARS PLpro yeast -3%, RE007 growth inh 15%, NS1 inh -1% and StopGo reporter -1%.
For COCCNC(=O)CN1CCC(NC(=O)Nc2ccccc2)CC1 the results were Cruzain noTriton -1%, Marburg entry inh 0%, SARS PLpro yeast -2%, RE007 growth inh -7%[3.69 µM], Cruzain inh Det -4.7%, LASV entry inh 1%, NS1 inh 4% and StopGo reporter 18%.
`O=c1sc2ccccc2c(N2CCN(c3ccccc3)CC2)c1[N+](=O)[O-]` gave Marburg entry inh 10%, SARS PLpro yeast -1%, RE007 growth inh -4%, LASV entry inh 12% and StopGo reporter -18%.
`COC(=O)C1=C(C)N(Cc2ccccc2)C(=NCc2cc(OC)c(OC)c(OC)c2)N[C@H]1c1cccc(F)c1` gave SARS PLpro yeast 4%&8%, RE007 growth inh -10%, NS1 inh 13%&10% and StopGo reporter inconclusive.
Cc1ccc(-c2cc3nc(-c4ccccc4)cc(N4CCC5(CC4)OCCO5)n3n2)cc1 was read as Cruzain noTriton inconclusive, Marburg entry inh -23%[46.1 µM], SARS PLpro yeast -32%, RE007 growth inh 11%, Cruzain inh Det -2.8%, LASV entry inh 14%, NS1 inh 12% and StopGo reporter -8%.
Screening Cc1cc(Nc2ccccc2Cl)c2ccccc2n1 returned Marburg entry inh inconclusive, RE007 growth inh -10%, LASV entry inh inconclusive and StopGo reporter inconclusive.
For COc1ccc2c3c([nH]c2c1)C(C)=NCC3 the results were Cruzain noTriton 10µM*!, Marburg entry inh inconclusive, SARS PLpro yeast -14%, RE007 growth inh -9%[18.4 µM], Cruzain inh Det -3.3%&-26%&-11%&-17%, LASV entry inh -2%, NS1 inh -14% and StopGo reporter inconclusive.

Compound activity: PubChem BioAssay, National Center for Advancing Translational Sciences (NCATS)

This is a random part of the collection; overall some 4.8% were active at least once.
